Six1-Eya2 inh = inhibitors of human Six1/Eya2 interaction | Q15475+O00167 | AlphaScreen GST-Six1/His-Eya2 binding, biochemical; stronger effect = lower value; control for the full effect not named in the record | activity change, % (concentration not given with the values) | 360,000 tested, 0.56% active | AID 651725; in the data active = activity change below about -65%; inconclusive = about -30% to -65%; inactive = above about -30%; further: on the % scale 0 is the no-effect control and ±100 the full control effect
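AlphaScreen with GST-Six1 and His-Eya2 (5X mix: 250 nM and 500 nM), glutathione donor and nickel acceptor beads; buffer 50 mM Tris pH 8.0, 300 mM NaCl, 1 mM TCEP; 1 h at 37 C in the dark.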
D2 PAM = potentiates the human D2 dopamine receptor allosterically. AID 624464. P14416. DiscoveRx D2 beta-arrestin cells, luminescence, 90 min; 100% = 57 uM dopamine signal. potentiation, % (test concentration not listed). 360,000 tested, 0.23% active; active = potentiation of 50% or more; inconclusive = 30% to 50%; inactive = 30% or less;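 further: compound concentration not given in the record; tested on top of an EC20 dose of dopamine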
Target sequence (P14416 whole entry, looked up): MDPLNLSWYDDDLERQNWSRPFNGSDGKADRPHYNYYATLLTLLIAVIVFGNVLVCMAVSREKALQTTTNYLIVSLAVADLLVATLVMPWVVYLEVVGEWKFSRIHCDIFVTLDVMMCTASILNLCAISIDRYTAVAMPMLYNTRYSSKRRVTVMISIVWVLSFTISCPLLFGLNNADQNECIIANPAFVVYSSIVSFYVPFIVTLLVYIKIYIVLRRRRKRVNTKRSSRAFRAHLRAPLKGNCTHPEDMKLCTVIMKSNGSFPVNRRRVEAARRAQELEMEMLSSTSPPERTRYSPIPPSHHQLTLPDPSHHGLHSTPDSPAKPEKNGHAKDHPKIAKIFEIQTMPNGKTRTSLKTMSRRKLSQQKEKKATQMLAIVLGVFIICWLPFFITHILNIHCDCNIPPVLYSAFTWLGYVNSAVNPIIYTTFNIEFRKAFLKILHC
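PathHunter beta-arrestin assay in DiscoveRx D2 cells. Compounds were added with an EC20 of dopamine (50 nM final) for 90 min at 37 deg C. Luminescence was read 1 h after detection reagent, with 57 uM dopamine as the EC100 control.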
TRPML1 agonist = human mucolipin-1 channel agonism; TRPML1-expressing cells, Ca2+ dye fluorescence, FDSS; host cell line not named in the record; reference of the full effect not given here; activation, % (test concentration not listed); 410,000 tested, 0.12% active; AID 624414; in the data active = activation above about 50%; inconclusive = about 30% to 50%; inactive = below about 30%; further: 0% is about no effect; the text of the record puts the active cut at 80%
Target sequence (Q9GZU1 whole entry, looked up): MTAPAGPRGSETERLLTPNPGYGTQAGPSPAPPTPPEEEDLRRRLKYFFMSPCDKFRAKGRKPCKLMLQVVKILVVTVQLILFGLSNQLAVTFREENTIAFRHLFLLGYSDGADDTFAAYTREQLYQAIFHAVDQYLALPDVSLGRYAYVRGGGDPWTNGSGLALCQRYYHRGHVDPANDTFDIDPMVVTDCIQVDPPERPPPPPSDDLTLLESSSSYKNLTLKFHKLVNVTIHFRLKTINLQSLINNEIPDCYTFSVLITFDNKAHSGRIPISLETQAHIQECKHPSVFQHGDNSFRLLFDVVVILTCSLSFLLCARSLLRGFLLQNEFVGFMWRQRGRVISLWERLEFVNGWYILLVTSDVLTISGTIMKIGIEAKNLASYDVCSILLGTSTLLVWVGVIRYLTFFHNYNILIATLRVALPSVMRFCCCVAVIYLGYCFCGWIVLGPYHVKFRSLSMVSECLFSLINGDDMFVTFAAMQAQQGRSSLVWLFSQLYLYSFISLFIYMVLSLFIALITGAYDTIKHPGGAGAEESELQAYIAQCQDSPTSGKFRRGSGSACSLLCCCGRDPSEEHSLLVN
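TRPML1-DL cells, Tet-induced overnight (~16 h, 37 degrees C), loaded 45-90 min at room temperature with Ca8 no-wash calcium dye plus quencher. FDSS fluorescence: 10 s baseline, compound pin-transfer, 110 s agonist read, then EC80 54-4 (4uM final) and 110 s antagonist read.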
D2 ag = human D2 receptor agonism in beta-arrestin assay; activation, % (concentration not given with the values); P14416; AID 624465; 360,000 tested, 0.084% active; DiscoveRx PathHunter D2 beta-arrestin, luminescence, 90 min; 100% = 57 uM dopamine signal; in the data active = activation above about 40%; inconclusive = about 15% to 40%; inactive = below about 15%; further: compound concentration not given in the record; the text of the record calls up to 30% inactive
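Agonist mode: compounds alone added to overnight-plated D2 PathHunter cells for 90 min at 37 C, with 57 uM final dopamine (EC100) defining full response. Beta-arrestin recruitment detected by chemiluminescent reagent, read after 1 h at ambient temperature.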
TRPML1 blocker = inhibitors of human TRPML1 channel. Q9GZU1. TRPML1-inducible cells, Ca2+ dye fluorescence, FDSS; stronger effect = lower value; inhibition of EC80 agonist-evoked calcium signal. activity change, negative = inhibition, % (concentration not given with the values). 390,000 tested, 0.02% active; in the data active means activity change below about -50%; inconclusive means about -30% to -50%; inactive means above about -30%;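 further: stimulus is agonist 54-4 at its EC80 concentration; on the % scale 0 is the no-effect control and ±100 the full control effect; compound concentration not given in the record; the text of the record puts the active cut at -80%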
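Tet-induced TRPML1-DL cells loaded with Ca8 no-wash calcium dye were read kinetically on FDSS. Compound addition was followed by EC80 agonist 54-4 (4 uM final); inhibition was read over 110 s.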
PINK1 expr mod = PINK1 expression modulation; PINK1 immunofluorescence, high-content cytometry, 24 h; Potency, µM (titrated, usually from 76.6 µM), for the others: at the highest dose activation (PINK1 increase), usual class: activators; AID 624263; 410,000 tested, 0.2% active; active = well fitted activation curve with a large enough effect; inconclusive = small, poorly fitted or top-dose-only effect; inactive = flat fitted curve, though single readings scatter; cell line not stated here;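 further: potency means the concentration at half of the fitted maximal effect; % of control where 0% means no effect; nearly all actives have a fitted effect of over 65% in size; a mitochondrial uncoupler was the plate control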
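Stable cell line treated 24 h with compounds at 5 concentrations (CCCP controls), then fixed and immunostained for PINK1 plus nuclear and cell stains; PINK1 immunofluorescence quantified by laser-scanning microplate cytometry.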
An asterisk follows results filed as active; ? = inconclusive; . = no result given; [ ] = remark or other dose. An unsorted share of the library; about 1% have a hit in one of these screens.

SMILES | Six1-Eya2 inh | D2 PAM | TRPML1 agonist | D2 ag | TRPML1 blocker | PINK1 expr mod
CN1C(=O)c2ccc(C(=O)Nc3nccs3)cc2C1=O | 2 | -6 | 3.0 | -3.3 | -7 | -1.5%
CC(C)=N/N=C(/c1ccc([N+](=O)[O-])cc1)C12CN3CN(CN(C3)C1)C2 | -6 | -4 | 0.2 | -0.3 | 13 | -1.5%
CCC(=O)Nc1ccc(C(=O)NNC(=O)C2CCCCC2)cc1 | 4 | 5 | 0.4 | -1.0 | -3 | 0.7%
CC(C)C1Nc2ccc(C(=O)NC3CCCCC3)cc2NC1=O (configuration not stated) | -1 | -6 | -0.6 | -5.4 | -10 | 0.9%
O=C(CS(=O)(=O)c1ccc(Cl)c(Cl)c1)Nc1ccccc1Cl | 0 | -8 | 0.7 | -4.4 | -15 | 0.8%
Cc1ccc(C(=O)NCCCN2CCOCC2)cc1S(=O)(=O)N1CCCCC1 | 3 | -6 | 0.0 | 2.0 | 8 | 2.5%
Cc1cccnc1C(c1ccc(F)cc1)N(C)C(=O)C1CCN(CCCOc2ccc(F)cc2)CC1 (configuration not stated) | 3 | -20 | -0.8 | -3.7 | . | 0.1%
CCc1ccccc1NC(=O)C1CCCN(C(=O)c2cnn(-c3ccccc3)c2-n2cccc2)C1 (configuration not stated) | . | . | -0.8 | . | -4 | 0.5%
O=C(CSc1nnc(NC(=O)C2CC(=O)N(c3ccc(F)cc3)C2)s1)NCc1ccco1 (configuration not stated) | -2 | -3 | 0.3 | 3.8 | -15 | 1.3%
COc1ccccc1C1SCCN1S(=O)(=O)c1cccc(C(F)(F)F)c1 (configuration not stated) | 19 | -8 | 6.5 | -1.1 | -3 | .
O=C(CN1C(=O)COc2ccc(S(=O)(=O)N3CCOCC3)cc21)N1CCN(c2cccc(Cl)c2)CC1 | . | . | 4.5 | . | 12 | 8.8%
CC1(Cc2ccc(OC(F)(F)F)cc2)C(=O)Nc2ccc(OC(F)(F)F)cc21 (configuration not stated) | 7 | -2 | -0.5 | -2.1 | 20 | ?
CC(C)OC(=O)CSc1nnc(-c2ccc(C(C)(C)C)cc2)n1N | 4 | -7 | -0.5 | -2.7 | -1 | 1.8%
CCCCN1C(=O)C(CC(=O)NCc2cccs2)CC(C(=O)N2CCOCC2)=C1C (configuration not stated) | 5 | 3 | 3.3 | -3.2 | 13 | -1.2%
CC(=O)CC(=O)NC1CCc2ccccc21 (configuration not stated) | 9 | -11 | 1.0 | -0.5 | ? | -1.0%

Among those listed so far, 5 contain nitrogen in an aromatic ring.
SMILES | Six1-Eya2 inh | D2 PAM | TRPML1 agonist | D2 ag | TRPML1 blocker | PINK1 expr mod
CN1C(=O)c2ccc(C(=O)Nc3nccs3)cc2C1=O | 2 | -6 | 3.0 | -3.3 | -7 | -1.5%
Cc1cccnc1C(c1ccc(F)cc1)N(C)C(=O)C1CCN(CCCOc2ccc(F)cc2)CC1 (configuration not stated) | 3 | -20 | -0.8 | -3.7 | . | 0.1%
CCc1ccccc1NC(=O)C1CCCN(C(=O)c2cnn(-c3ccccc3)c2-n2cccc2)C1 (configuration not stated) | . | . | -0.8 | . | -4 | 0.5%
O=C(CSc1nnc(NC(=O)C2CC(=O)N(c3ccc(F)cc3)C2)s1)NCc1ccco1 (configuration not stated) | -2 | -3 | 0.3 | 3.8 | -15 | 1.3%
CC(C)OC(=O)CSc1nnc(-c2ccc(C(C)(C)C)cc2)n1N | 4 | -7 | -0.5 | -2.7 | -1 | 1.8%

Going on with the list.
SMILES | Six1-Eya2 inh | D2 PAM | TRPML1 agonist | D2 ag | TRPML1 blocker | PINK1 expr mod
OCCSc1c(F)c(SCCO)c(SCCO)c(F)c1SCCO | 1 | -15 | 0.1 | -2.3 | 3 | ?
Cc1ccsc1C(=O)OC(C)C(=O)NC1CCCCC1C (configuration not stated) | 10 | 4 | 2.2 | -5.2 | 23 | 11%
COCCn1c(=NC(=O)c2ccc(S(=O)(=O)N3CCOCC3)cc2)sc2cc(S(N)(=O)=O)ccc21 | 5 | 18 | 0.4 | 3.9 | -6 | -0.2%
CC1CCN(C(=O)CNC(=O)c2cccc(OC(F)F)c2)CC1 | -1 | -11 | -0.3 | -0.4 | -4 | -1.0%
Cc1nc(N2CCOCC2)c(C#N)c(C)c1Br | 9 | -24 | 0.2 | 2.3 | 15 | 6.5%
COc1ccccc1CCNC(=O)c1ccc(OC)c(OC2CCN(C(C)C)CC2)c1 | 3 | -18 | -0.3 | -1.0 | -8 | 0.3%
COCCNC(=S)N/N=C/c1ccc(-c2ccc([N+](=O)[O-])cc2)o1 | -8 | -1 | 12 | 3.7 | 7 | 45µM*
O=C(/C=C/c1cccs1)Nc1ccc(Br)cn1 | 13 | -22 | 1.5 | 0.7 | -15 | 8.7%
COc1cccc(CNc2sc3c(c2C(=O)Nc2ccc(OC)cc2OC)CCC3)c1 | . | . | -0.3 | . | -1 | -1.5%
COc1cccc(C=Nc2cccc3c(=O)[nH][nH]c(=O)c23)c1O | -6 | 22 | 1.6 | 6.2 | 2 | 0.6%
CCCCCC(=O)N=Nc1c(O)[nH]c2ccc([N+](=O)[O-])cc12 | 6 | -10 | -0.2 | -5.0 | 14 | 14%
CN1CCN(CC(=O)N2c3ccccc3C(C)(c3ccccc3)CC2(C)C)CC1 (configuration not stated) | -4 | -34 | 0.5 | -1.0 | 21 | 1.0%
Cc1nn(CCC(=O)NNC(=S)Nc2cccc(Cl)c2)c(C)c1[N+](=O)[O-] | -4 | -13 | -0.6 | -4.3 | -8 | -1.6%[38.3 µM]
NC(=O)CN1C(=O)C(O)(CC(=O)c2ccccc2O)c2ccccc21 (configuration not stated) | 2 | -16 | -0.1 | -8.5 | 32 | -0.6%
COc1ccc(Cc2nnc(SC(C)C(=O)Nc3ccc(C(N)=O)cc3)o2)cc1 (configuration not stated) | 0 | 17 | 0.0 | -3.4 | 4 | 2.0%
COc1ccc(C)cc1NC(=O)CN1CCN(c2ccccn2)CC1 | -3 | 0 | 0.7 | 11 | 8 | 3.2%
Cc1cccc(Nc2cc(=O)[nH]c(=O)[nH]2)c1C | 2 | 19 | -0.1 | 2.4 | 5 | 0.1%
COc1ccc(OC)c(NC(=O)C2(C)CCN2Cc2ccccc2Cl)c1 (configuration not stated) | -19 | -9 | 0.2 | -3.3 | . | 1.7%
CNS(=O)(=O)c1cccc(C(=O)OC2CCOC2=O)c1 (configuration not stated) | -7 | -8 | 0.0 | -2.3 | 8 | 0.8%
CCC1(c2ccc(C)cc2)NC(=O)N(C(C)C(=O)Nc2ccc(N3CCOCC3)cc2)C1=O (configuration not stated) | -5 | -20 | -0.4 | 2.3 | 1 | -0.2%
COc1ccc(NC(=O)COc2nc(N(C)C)nc(N(C)C)n2)cc1 | 0 | -5 | -1.3 | -0.8 | -2 | 2.9%
Cc1nc2nc(NCc3ccccc3Cl)[nH]n2c(=O)c1Cc1ccccc1 | . | . | -0.8 | . | 2 | -1.2%
Cc1ccc(C)c(S(=O)(=O)N2CCN(C(C)C(=O)Nc3ccccc3-c3ccccc3)CC2)c1 (configuration not stated) | -4 | -22 | 1.0 | -0.7 | 1 | -2.3%
CN(C(=O)CSc1nc2cc(C(=O)O)ccc2c(=O)n1Cc1ccccc1)C1CCS(=O)(=O)C1 (configuration not stated) | -2 | -43 | 3.9 | 0.8 | 27 | 2.4%
Cc1nc(N2CCCC2)c2c(C(=O)N3CCN(c4cccc(C)c4C)CC3)c(C)oc2n1 | . | . | 0.7 | . | 20 | ?
COc1ccc(CCNC(=O)c2cc3c(s2)-c2ccccc2OC3)cc1OC | . | . | 0.5 | . | 2 | 14%
Cc1nc2cccnc2n1C1CCN(S(=O)(=O)N(C)C)CC1 | . | . | 0.0 | . | -11 | 0.0%
O=C1C=CC(=O)N1c1ccc(O)cc1 | -9 | -19 | -0.4 | -1.9 | 25 | 3.4%
CC(c1ccccc1)C1CC(=O)N(c2ccccc2)C1=O (configuration not stated) | 1 | 3 | 0.4 | 1.3 | 16 | 0.2%
COc1ccc(/C=N\NS(=O)(=O)c2ccc(Br)cc2)cc1COc1ccccc1[N+](=O)[O-] | -7 | -7 | 1.3 | -4.6 | 43 | 0.8%

Three compounds out of the list above, arranged by the value under PINK1 expr mod, smallest number first.
Molecule	Six1-Eya2 inh	D2 PAM	D2 ag	TRPML1 blocker	PINK1 expr mod
Cc1nc2nc(NCc3ccccc3Cl)[nH]n2c(=O)c1Cc1ccccc1	.	.	.	2	-1.2%
NC(=O)CN1C(=O)C(O)(CC(=O)c2ccccc2O)c2ccccc21 (configuration not stated)	2	-16	-8.5	32	-0.6%
Cc1ccsc1C(=O)OC(C)C(=O)NC1CCCCC1C (configuration not stated)	10	4	-5.2	23	11%

Continuation.
SMILES | Six1-Eya2 inh | D2 PAM | TRPML1 agonist | D2 ag | TRPML1 blocker | PINK1 expr mod
O=C(c1cccc(Br)c1)N1CCCc2ccccc21 | 24 | -3 | 1.7 | 4.8 | -2 | 7.3%
O=C(Nc1cnccn1)c1ccc(F)cc1Cl | 1 | -17 | -0.5 | -4.7 | -8 | -1.6%
CCCCOC(=O)c1ccc(Nc2nc3ccc(C)cc3n3cnnc23)cc1 | . | . | -1.1 | . | -3 | 1.0%
O=C(NCCNc1ccnc2cc(Cl)ccc12)c1ccccc1F | -1 | -4 | . | 6.7 | . | 3.9%
Cn1c(=O)c2cc(NC(=O)CCc3ccc4c(c3)OCO4)ccc2n1Cc1ccc(F)cc1 | -3 | -5 | -1.0 | 3.8 | . | 19%
O=C(O)/C(=C\c1ccc(Cl)c([N+](=O)[O-])c1)c1ccc(S(=O)(=O)N2CCCCC2)s1 | -9 | -1 | -1.2 | -4.3 | 7 | -2.5%
Cc1cccc2cc3c(NC(=O)C(C)(C)C)nn(CC(C)C)c3nc12 | 56 | -6 | -0.3 | -5.1 | 1 | 11%
CCCCN(C)CCNC(=O)c1cc2c(=O)[nH]c3ccccc3c2n1C | -10 | -20 | -0.8 | -4.0 | 7 | -2.4%
O=C(c1ccccc1O)N1N=C(c2ccccc2)CC1(O)C(F)(F)F (configuration not stated) | 3 | 0 | 1.4 | -3.7 | 14 | 20%
O=C(Nc1cc(Cl)ccc1Cl)c1ccc(-c2ccccc2)cc1 | 16 | -22 | 4.0 | -4.6 | 47 | 7.0%
Cc1cc(C(=O)COC(=O)c2cccc(O)c2)c(C)n1C1CC1 | -11 | ? | -0.5 | -3.2 | 5 | 7.1%
Cc1cc(OCC(O)CN2CCCC2)cc(C)c1Cl (configuration not stated) | 6 | -24 | -0.3 | -7.1 | 40 | 2.2%
CCCCC(CC(O)COCC(C)C)C(=O)NNC(=S)Nc1ccccc1 (configuration not stated) | -4 | -5 | 0.7 | -3.9 | -19 | 0.7%
CCCN(CC(=O)Nc1ccccc1C)C(=O)c1ccc(OCc2c(C)noc2C)cc1 | 3 | -8 | -0.8 | -3.6 | 6 | 0.8%
COc1ccc(CNC2CCCCC2)cc1 | 4 | -5 | -0.3 | -4.4 | -6 | 5.1%[38.3 µM]
COc1cc(OC)c(C(=O)OCC(=O)NCCC2=CCCCC2)cc1OC | -3 | -26 | -0.3 | -5.8 | -5 | -1.1%
COC(=O)Cn1nc(C)c2ccccc2c1=O | 5 | -12 | 1.1 | -3.2 | 28 | -0.2%

High-throughput results as filed in PubChem BioAssay.
